NS1 function inh = qHTS Assay for Inhibitors of Influenza NS1 Protein Function | S. cerevisiae slowed by influenza A NS1, growth recovery by OD600 | Potency, µM (highest dose often 46.1 µM), inactives show at the highest dose activity, positive = more growth | 270,000 compounds, 0.4% hits; active means well fitted rising curve with a large enough effect; inconclusive means small, poorly fitted or top-dose-only effect; inactive means no such curve, though single readings can be large or run the other way; note: nearly all actives have a fitted effect of over 50% in size
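In this qHTS, NS1 from influenza A is expressed in budding yeast, where it slows growth. Cells are switched from glucose to 2% galactose medium (pH 6.0, -URA), treated with compound, and growth recovery is read at OD600.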
Cruzain inh noDet = qHTS Assay for Promiscuous and Specific Inhibitors of Cruzain (without detergent); Cruzipain (Trypanosoma cruzi), P25779; purified cruzain, Z-FR-AMC fluorescence, no detergent; Potency, µM, inactives show max response, negative = inhibition, usual class: inhibitors; 200,000 compounds, 2.3% hits;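 note: plate controls were enzyme without inhibitor for no effect and buffer without enzyme for full effect; nearly all actives have a fitted effect of over 40% in size; top concentration of the series not given in the record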
Target sequence (P25779 123-467 limits assumed): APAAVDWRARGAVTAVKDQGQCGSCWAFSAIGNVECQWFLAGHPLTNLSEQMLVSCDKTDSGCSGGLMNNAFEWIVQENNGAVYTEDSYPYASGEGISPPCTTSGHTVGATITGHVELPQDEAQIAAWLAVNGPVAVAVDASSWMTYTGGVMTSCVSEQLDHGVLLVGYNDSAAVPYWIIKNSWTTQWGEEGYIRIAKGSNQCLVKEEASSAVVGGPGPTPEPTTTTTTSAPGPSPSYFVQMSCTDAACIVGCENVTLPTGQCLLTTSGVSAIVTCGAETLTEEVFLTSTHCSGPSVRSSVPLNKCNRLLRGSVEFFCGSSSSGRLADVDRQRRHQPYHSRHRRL
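Purified cruzain at 1.5 nM, pre-incubated 15 min with compound at room temperature in 100 mM sodium acetate pH 5.5, 5 mM DTT, 0.00005% Triton X-100. Reaction started with 2 uM Z-FR-AMC; AMC fluorescence increase over 60 s gives rate.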
Cruzain inh Det = qHTS Assay for Promiscuous and Specific Inhibitors of Cruzain (with detergent); purified cruzain, Z-FR-AMC fluorescence, 0.01% Triton; 200,000 compounds, 0.43% hits; Cruzipain (Trypanosoma cruzi), P25779; AID 1478, 2009; Potency, µM, inactives show max response, negative = inhibition, most hits filed as inhibitors;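 note: plate controls were neutral wells for no effect and buffer without enzyme for full effect; nearly all actives have a fitted effect of over 40% in size; top concentration of the series not given in the record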
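Cysteine protease activity tested under reducing, mildly acidic conditions (100 mM sodium acetate pH 5.5, 5 mM DTT) plus 0.01% Triton X-100. Cruzain 1.5 nM; substrate Z-FR-AMC 2 uM; 15 min compound preincubation at room temperature.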
RE007 growth inh = qHTS Assay for Inhibitors of the HIV-1 protein Vpr. S. pombe RE007 Vpr strain, BacTiter-Glo ATP luminescence, 24 h; control for the full effect not named in the record. 360,000 compounds, 0.21% hits. Potency, µM (highest dose often 92.2 µM), inactives show at the highest dose activity change, negative = less growth. AID 651644, 2012; active = well fitted falling curve with a large enough effect; inconclusive = small, poorly fitted or top-dose-only effect; inactive = no such curve, though single readings can be large or run the other way;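 note: % is set by controls: 0 for no effect and ±100 for the full control effect; nearly all actives have a fitted effect of over 50% in size; the assay follows cell death caused by Vpr and the record does not say whether a fall means rescue or toxicity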
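Fission yeast RE007 carrying one integrated HIV-1 vpr copy, seeded at OD 0.01 in PMG+AL medium with 23 nL pinned compound. Grown 24 h at 30 degrees; viability read by BacTiter-Glo luminescence after 5 min.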
SARS PLP yeast = qHTS of Yeast-based Assay for SARS-CoV PLP; S. cerevisiae expressing SARS-CoV PLpro, growth rescue; control for the full effect not named in the record; Potency, µM (highest dose often 32.9 µM), inactives show at the top dose activity, positive = growth rescue; 330,000 compounds, 0.19% hits; active means well fitted rising curve with a large enough effect; inconclusive means small, poorly fitted or top-dose-only effect; inactive means no such curve, though single readings can be large or run the other way; note: 0% is about no effect; nearly all actives have a fitted effect of over 55% in size; growth read by luminescence after 48 h
LASV entry inh = qHTS for Inhibitors of binding or entry into cells for Lassa Virus; 300,000 compounds, 1.2% hits; Lassa virus pseudotype entry inhibition, cell reporter; control for the full effect not named in the record; Potency, µM (titrated, usually from 37.9 µM), without a hit: at the top dose activity change, negative = inhibition, usual class: inhibitors; active means well fitted inhibition curve with a large enough effect; inconclusive means small, poorly fitted or top-dose-only effect, or effect the other way; inactive means flat fitted curve, though single readings scatter; tested in HEK293 cells; note: % is set by controls: 0 for no effect and ±100 for the full control effect; nearly all actives have a fitted effect of over 50% in size; luciferase read-out
2A StopGo = High Throughput Screening for Foot and Mouth Disease Virus Antivirals. 410,000 compounds, 1.2% hits. human cells with a luciferase reporter of 2A StopGo recoding; control for the full effect not named in the record. Potency, µM (doses to about 57.9 µM), for inactives: top-dose signal change, negative = less light; active = well fitted falling curve with a large enough effect; inconclusive = small, poorly fitted or top-dose-only effect; inactive = no such curve, though single readings can be large or run the other way; tested in HEK293T cells; note: % is set by controls: 0 for no effect and ±100 for the full control effect; nearly all actives have a fitted effect of over 45% in size; luciferase light after 4 h
Marburg entry inh = qHTS for inhibitors of binding or entry into cells for Marburg Virus; AID 540276, 2011; Marburg virus pseudotyped entry inhibition, cell reporter; control for the full effect not named in the record; about a third of the inactives were read at about 46 µM; 300,000 compounds, 1.8% hits; Potency, µM (titrated, usually from 37.8 µM), without a hit: at the highest dose activity change, negative = inhibition, hits mostly inhibitors; active = well fitted inhibition curve with a large enough effect; inconclusive = small, poorly fitted or top-dose-only effect, or effect the other way; inactive = flat fitted curve, though single readings scatter; tested in HEK293 cells; about a fifth of its hits are not listed in these tables; note: % is set by controls: 0 for no effect and ±100 for the full control effect; luciferase read-out
An asterisk follows results filed as active; ? = inconclusive; nt = no result given; & = joins results of further samples; [ ] = another dose, or the depositor's remark. Unless noted, calls come from the whole dose curve; as a rule, active = well fitted curve in the direction sought with a large enough effect; inconclusive = small, poorly fitted or top-dose-only effect, or another doubt; inactive = no such curve, though single readings can be large; an effect the other way counts as inactive or inconclusive. Potency is the fitted concentration of half-maximal effect.

SMILES	NS1 function inh	Cruzain inh noDet	Cruzain inh Det	RE007 growth inh	SARS PLP yeast	LASV entry inh	2A StopGo	Marburg entry inh
CC(C)OC(=O)c1c(N)n(Cc2ccco2)c2nc3ccccc3nc12	7%	13µM*	11µM*	-7%	8%	-2%	-21%	-1%
O=C(CCN1C(=O)S/C(=C\c2ccccc2)C1=O)Nc1ccc(S(=O)(=O)Nc2nccs2)cc1	15%	4%	-4.0%	-7%	7%	17%	1%	4%
CCc1cccc(NC(=O)COc2cc(=O)n(CC)c3ccccc23)c1	nt	-18%	2.8%	nt	nt	?	-22%	24%[46.1 µM]
C=CCN(CC=C)S(=O)(=O)c1ccc(NC(=S)NC(=O)/C=C/c2ccccc2)cc1	2%	-3%	2.1%	1%	-1%	?	2%	nt
COc1ccccc1NC(=S)N(Cc1ccco1)Cc1cc2cc(C)cc(C)c2[nH]c1=O	7%	-15%	-5.1%	1%	5%	?	-18%	?
CCOc1ccc(OCCC(=O)N(CC(=O)Nc2ccccc2C(F)(F)F)Cc2ccco2)cc1	nt	nt	nt	10%	3%	1%	-8%	?
COc1ccc(C(=O)NNC(=O)Cc2ccc(Cl)cc2)cc1	2%	nt	nt	18%	-1%	nt	-10%	nt
Oc1c(Cl)cc(Cl)cc1/C=C/c1ccc2cccc(O)c2n1	-1%	nt	nt	-10%	-1%	?	-25%	?
Cc1ccc(S(=O)(=O)N2CCOCC2)cc1NC(=O)COC(=O)CCC(=O)c1cccs1	-17%	-12%	2.5%	22%	-2%	-1%	14%	-11%
CNC(=S)NNC(=O)CSCc1c(Cl)cccc1Cl	1%	nt	nt	8%	0%	-3%	-8%	-1%[46.1 µM]
Cc1cc(C(=O)NNc2c(Cl)cccc2Cl)n(C(C)(C)C)n1	2%	nt	nt	-14%	1%	0%[46.1 µM]	2%	-12%[46.1 µM]
O=C(OC1CCOC1=O)c1cncc(Br)c1 (stereo unspecified)	2%	1%	2.2%	-3%	0%	25%	4%	6%
CCc1cc(=O)oc2cc(OCC(=O)N3C[C@H]4C[C@@H](C3)c3cccc(=O)n3C4)c(Cl)cc12	-4%	nt	nt	-14%	-6%	nt	-5%	nt
Cc1ccc(NC(=O)Cn2cc3c(n2)CCC(C)C3)cc1C (stereo unspecified)	nt	4%	-1.9%	nt	nt	-5%[46.1 µM]	7%	11%[46.1 µM]
CCOc1ccccc1N(CC(=O)NCC1CCCO1)C(=O)CCC(=O)Nc1cc(C)on1 (stereo unspecified)	0%	nt	nt	0%	-1%	?	-9%	-8%[46.1 µM]
Cc1sc2ncnc(SCC(=O)N3CCCC3=O)c2c1C	-11%	2%	3.3%	-14%	-2%	5%	20%	?
O=C(NC1CCN(Cc2ccccc2)CC1)c1ccc(Cn2c(=O)c3ccccc3n(Cc3ccc(F)cc3)c2=O)cc1	nt	8%	-1.7%	nt	nt	?	0%	?
Cc1cc(C)c(S(=O)(=O)NCCCn2ccnc2)cc1C	-7%	nt	nt	-18%	-1%	?	88%[activator]	3.5µM*
Cc1ccc2c(c1)C1CCCC3C1N2CC(=O)N3Cc1ccccc1 (stereo unspecified)	5%	13µM*	-3.8%	nt	2%	nt	nt	-1%
CC(=O)N1CCC(C(=O)NC2CCCc3c2cnn3-c2cc(F)cc(F)c2)CC1 (stereo unspecified)	3%	nt	nt	42%	-1%	8%	-19%	0%
CCCn1nc(NS(=O)(=O)c2ccccc2)c2cc3cc(C)ccc3nc21	12%	-8%	-4.1%	10%	19%	19%	17%	28%
CN(CCc1ccccn1)Cc1ccc(Cl)cc1	6%	-6%	0.0%	-2%	nt	3%	-7%	17%
Cc1cc(N2CC(C)OC(C)C2)n2cc(-c3ccccc3)nc2n1 (stereo unspecified)	nt	nt	nt	11%	-3%	-4%	4%	5%[46.1 µM]
Cc1nn(C)c(C)c1S(=O)(=O)NC1CCCc2ccccc21 (stereo unspecified)	1%	4%	1.2%	18%	-1%	-7%	6%	?
Cc1cc2ccccc2n2c(SCC(=O)NCC3CCCO3)nnc12 (stereo unspecified)	1%	nt	nt	0%	-1%	nt	-12%	nt

One compound at a time, as listed above. Order of screens: NS1 function inh	Cruzain inh noDet	Cruzain inh Det	RE007 growth inh	SARS PLP yeast	LASV entry inh	2A StopGo	Marburg entry inh
Results for Cc1sc2ncnc(SCC(=O)N3CCCC3=O)c2c1C → -11%	2%	3.3%	-14%	-2%	5%	20%	?
Results for Cc1cc2ccccc2n2c(SCC(=O)NCC3CCCO3)nnc12 (stereo unspecified) → 1%	nt	nt	0%	-1%	nt	-12%	nt

3 entries picked at random from the list so far:
SMILES	NS1 function inh	Cruzain inh noDet	Cruzain inh Det	RE007 growth inh	SARS PLP yeast	LASV entry inh	2A StopGo	Marburg entry inh
C=CCN(CC=C)S(=O)(=O)c1ccc(NC(=S)NC(=O)/C=C/c2ccccc2)cc1	2%	-3%	2.1%	1%	-1%	?	2%	nt
Cc1sc2ncnc(SCC(=O)N3CCCC3=O)c2c1C	-11%	2%	3.3%	-14%	-2%	5%	20%	?
Cc1ccc(NC(=O)Cn2cc3c(n2)CCC(C)C3)cc1C (stereo unspecified)	nt	4%	-1.9%	nt	nt	-5%[46.1 µM]	7%	11%[46.1 µM]

Other records.
SMILES	NS1 function inh	Cruzain inh noDet	Cruzain inh Det	RE007 growth inh	SARS PLP yeast	LASV entry inh	2A StopGo	Marburg entry inh
Cc1ccc(NC(=O)COC(=O)Cc2csc(-c3ccc(Cl)cc3)n2)cc1C	-16%	-12%	-6.3%	-2%	-30%	13%	34%[activator]	21%
CCOc1ccccc1NC(=O)c1cc(-c2cc(OC)c(OC)c(OC)c2)nc2ccccc12	?	nt	nt	-1%	-1%	11µM*	-23%	?
CC1CC(N(C(=O)c2ccc(Cl)cc2)c2ccccc2)c2ccccc2N1C(=O)c1ccco1 (stereo unspecified)	5%	13%	-1.9%	13%	-12%	20µM*	?	?
COc1ccc(C)cc1S(=O)(=O)Nc1cc2c3c(c1)CCC(=O)N3CCC2	nt	nt	nt	4%	0%	-25%	45%[activator]	-18%[46.1 µM]
CC(OC(=O)C1CC(=O)N(Cc2ccco2)C1)C(=O)Nc1cccc(C#N)c1 (stereo unspecified)	nt	nt	nt	28%	-4%	7%	2%	20%[46.1 µM]
COc1ccccc1C(=O)NC(=O)COC(=O)c1cccc(OC(F)F)c1	nt	nt	nt	-22%	0%	0%	-14%	3%
CN(C)CCCN(C(=O)c1ccc(S(=O)(=O)N(C)Cc2ccccc2)cc1)c1nc2cc3c(cc2s1)OCO3	15%	nt	nt	-6%	16%	nt	6%	nt
CCOC(=O)Cn1c(=O)n(C2CCCC2)c(=O)c2ccccc21	-7%	-3%	0.5%	-1%	0%	12%	-23%	?
COc1ccc(NC(=O)C2CCC(N3C(=O)C4CCCCC4C3=O)CC2)cc1 (stereo unspecified)	0%	nt	nt	4%	2%	1%	-10%	-5%[46.1 µM]
CCC(CO)Nc1ccc(-c2nn(C)c(=O)c3ccccc23)cc1[N+](=O)[O-] (stereo unspecified)	-5%	nt	nt	-8%	16%	nt	-13%	nt
COc1ccc(CNc2oc(COc3ccccc3)nc2C#N)cc1	-69%	-12%	-6.7%	17%	-15%	?	-13%	2%
Cn1c(=O)c2c(ncn2CCNC2=NCCCCC2)n(C)c1=O	5%	nt	nt	6%	0%	16%	-5%	10%[46.1 µM]
O=C(CN1CCN(Cc2ccccc2)CC1)Nc1ccc2c(c1)CCC2	nt	nt	nt	-14%	-6%	-16%	-4%	1%[46.1 µM]
O=C1NCCCC1C(=O)N/N=C/c1ccccc1O (stereo unspecified)	-3%	-12%	-0.5%	6%	-7%	-4%	16%	13%
Cc1nn(C)cc1C(C)NC(=O)c1cc(COc2c(F)cccc2F)on1 (stereo unspecified)	1%	nt	nt	3%	1%	nt	1%	nt
Cc1nonc1C(=O)N1CCCC(Nc2ccc(C(C)C)cc2)C1 (stereo unspecified)	-14%	nt	nt	11%	-7%	nt	3%	nt
Cc1c(O)c(=O)ccn1C	-19%	-6%	-2.4%	3%[18.4 µM]	5%&11%	-20%	-15%	8%
CC1CN/C(=C\C(=O)c2ccccc2)C(=O)N1 (stereo unspecified)	-4%	-11%	-4.9%	-19%	-2%	?	19%	?
Cc1c(O)ccc(C(=O)COc2ccc(F)cc2)c1O	-34%	1%	-5.8%	?	-14%	-11%	-23%	17%
Cc1ccc(CSCCC(=O)N2CCN(c3ccc(F)cc3)CC2)cc1	nt	19%	1.2%	nt	nt	?	-19%	nt
CCN(CC)S(=O)(=O)c1ccc(C)c(NC(=O)CNCCN(C(C)C)C(C)C)c1	3%	nt	nt	-4%	1%	nt	3%	nt
Cc1cc(CNC(=O)c2cccc([N+](=O)[O-])c2)c2ccccc2n1	nt	nt	nt	-7%	0%	-27%[46.1 µM]	?	?
O=C(Nc1sc2c(c1C(=O)O)CCC2)c1ccccc1	-188%	-18%	-6.9%	-27%	4%	?	22%	7.3µM*
O=C(Nc1cccnc1)c1cc(-c2ccc(Br)cc2)on1	-1%	?	2.1%	-3%	-2%	nt	29%	nt
CCOc1ccc(Br)cc1C(=O)N/N=C/c1cccnc1	-5%	nt	nt	2%	-3%	nt	13%	nt
CC(C)OCCCNC(=O)c1c(N)n(CC2CCCO2)c2nc3ccccc3nc12 (stereo unspecified)	-66%	?	-13%	2%	-3%	-13%	nt	?
CCSc1ccc(C(=O)Nc2cccc(C)n2)cc1[N+](=O)[O-]	2%	?	-4.6%	-20%	-1%	-8%	4%	13%
COc1ccccc1NC(=O)CCN1C(=O)/C(=C/c2cc(OC)c(OC)c(OC)c2)SC1=S	7%	nt	nt	-17%	-2%	nt	-14%	nt
O=C(CSc1n[nH]c(=O)[nH]c1=O)c1ccc([N+](=O)[O-])cc1	2%	nt	nt	4%	2%	-5%	19%	3%[46.1 µM]
O=C(Nc1ccc(CN2CCOCC2)cc1)c1cc(Br)ccc1Cl	-11%	nt	nt	-9%	-1%	nt	-9%	nt
